From PubChem BioAssay
RecA intein inh – Mtb RecA intein splicing inhibition; cell-free RecA intein splicing, fluorescence; inhibition, %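 (about 9 µM by stock and volumes)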; actives 0.75% (n = 290,000); in the data active means inhibition above about 30%; inconclusive means no clear call, values can overlap the other calls;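 further: 0% = vehicle wells and 100% = reference inhibitor control wells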
Target sequence (P9WHJ3 whole entry, looked up): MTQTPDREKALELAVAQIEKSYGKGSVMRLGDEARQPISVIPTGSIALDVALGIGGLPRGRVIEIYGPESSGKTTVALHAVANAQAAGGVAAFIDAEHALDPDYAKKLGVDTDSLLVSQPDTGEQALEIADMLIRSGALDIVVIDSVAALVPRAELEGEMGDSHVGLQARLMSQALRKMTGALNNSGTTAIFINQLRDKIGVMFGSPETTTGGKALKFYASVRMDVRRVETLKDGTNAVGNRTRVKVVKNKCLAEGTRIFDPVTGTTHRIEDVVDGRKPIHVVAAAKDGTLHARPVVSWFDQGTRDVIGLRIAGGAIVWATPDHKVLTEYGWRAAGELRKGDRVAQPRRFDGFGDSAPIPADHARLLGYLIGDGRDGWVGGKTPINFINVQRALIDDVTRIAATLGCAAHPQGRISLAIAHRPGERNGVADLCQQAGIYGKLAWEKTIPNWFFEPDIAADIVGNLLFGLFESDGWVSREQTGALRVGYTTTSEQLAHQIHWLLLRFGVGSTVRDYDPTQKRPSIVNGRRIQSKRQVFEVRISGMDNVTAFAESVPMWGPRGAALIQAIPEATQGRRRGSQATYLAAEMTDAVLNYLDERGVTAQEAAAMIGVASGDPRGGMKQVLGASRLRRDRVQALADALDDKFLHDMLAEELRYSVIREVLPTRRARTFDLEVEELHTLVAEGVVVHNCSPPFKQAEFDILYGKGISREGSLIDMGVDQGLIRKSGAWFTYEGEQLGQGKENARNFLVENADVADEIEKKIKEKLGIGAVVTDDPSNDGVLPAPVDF
Mtb bLac sens – beta-lactam sensitization of Mtb H37Rv. M. tuberculosis H37Rv growth with meropenem, percent inhibition; hits of this screen are not shown here. inhibition, % at 25 µM. actives 0.27% (n = 330,000);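 active means about 74% or more and at least 40 points above the plate without the antibiotic, then above 30% in a dose series; inconclusive means first-round hits that could not be retested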;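 further: growth measured after seven days incubation then overnight dye step; 0% = bacteria only wells and 100% = bacteria with antibiotic; twin plates without the antibiotic show which effects depend on it; some results filed as inactive read as strong as hits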
Mtb H37Rv – M. tuberculosis H37Rv growth inhibitors, H37Rv strain (AID 1626) | M. tuberculosis H37Rv growth inhibition; higher % means a stronger effect | one-dose inhibition, % at 10 µM; IC50 in µM for titrated hits | actives 0.95% (n = 220,000);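 active means confirmed in a dose series; inconclusive means inhibition above 80% but not taken into the dose series; inactive means below 80% or under 30% at every dose of the series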;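 further: bacteria incubated seven days before Alamar blue readout; 0% = bacteria only wells and 100% = bacteria with antibiotic wells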
YopH PTP inh – blocks Yersinia enterocolitica YopH tyrosine phosphatase. inhibition, %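 (about 10 µM by stock and volumes)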. fluorescence Ex485/Em525. actives 0.16% (n = 140,000);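 active means inhibition of 50% or more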;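 further: controls were vehicle for no effect and minimum signal wells for full effect; inactives centre near -20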
Arbovirus inh – antivirals against arbovirus infection | arbovirus infection cell-based antiviral screen | inhibition, % at 10 µM | actives 0.37% (n = 200,000) | AID 1251;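 active means inhibition from about 30%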;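 further: bluetongue infection of BSR cells; cell survival read as ATP light after 72 h; 0% = infected wells without compound and 100% = uninfected wells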
Arbovirus inh repeat – further read-out of Arbovirus inh, marked with its call; inhibition, %; measured here: 10K subset replicate screen; many hits read low in the repeat;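 first of two repeat runs on a subset; 0% = infected and 100% = uninfected wells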
An asterisk follows results filed as active; u = inconclusive; x = no result given.

SMILES	RecA intein inh	Mtb bLac sens	Mtb H37Rv	YopH PTP inh	Arbovirus inh	others
C=CCn1c(C)c(C(=O)OCC)c2cc(O)c3ccccc3c21	-3.1	4	x	x	x
CCOc1cc(/C=N/NC(=O)CN2CCOCC2)ccc1OCc1ccc(Cl)cc1	1.4	40	-3%	-41	4
CC1CCN(S(=O)(=O)c2cccc(C(=O)Nc3nncs3)c2)CC1	-2.9	4	x	x	x
CCOC(=O)N1CCN(S(=O)(=O)Cc2ccccc2)CC1	6.1	-15	-12%	-34	8
COc1ccc(-c2nnc(SCC(=O)Nc3nncs3)o2)cc1	-1.6	-1	1%	x	1
O=Cc1c(F)cccc1N1CCCC1	-1.0	1	3%	x	18
COc1ccc(S(=O)(=O)N2CCOC2CNC(=O)C(=O)NCCc2c[nH]c3ccccc23)cc1 (configuration not stated)	2.4	-3	x	-31	-5
COC(=O)C(Cc1ccc(OC(=O)c2ccc(Cl)cc2)cc1)N1Cc2ccccc2C1=O (configuration not stated)	16	63	23%	12	1
Nc1cc2nc3ccccc3nc2cc1N	0.2	95	-6%	x	x
Clc1ccc(SCNc2ccccc2Cl)cc1	-1.8	7	6%	x	x
CCOc1ccccc1N1CC(C(=O)NNC(=O)c2ccc(F)cc2)CC1=O (configuration not stated)	-1.7	-3	x	x	x
O=C(Nc1ccc2oc(-c3ccccc3)nc2c1)c1cccs1	-2.2	-6	3%	-26	-11
NC(=O)N/N=C/c1cn(-c2ccccc2)nc1-c1cccs1	3.5	4	5%	x	-11
CCCS(=O)(=O)N1CCN(Cc2ccccc2C(F)(F)F)CC1	1.4	-1	10%	-38	10
CCS(=O)(=O)Nc1ccc2[nH]c(=O)[nH]c2c1	-1.1	-6	1%	x	10

Structural class, the compounds so far with an NH in an aromatic ring (2)
SMILES	RecA intein inh	Mtb bLac sens	Mtb H37Rv	YopH PTP inh	Arbovirus inh	others
COc1ccc(S(=O)(=O)N2CCOC2CNC(=O)C(=O)NCCc2c[nH]c3ccccc23)cc1 (configuration not stated)	2.4	-3	x	-31	-5
CCS(=O)(=O)Nc1ccc2[nH]c(=O)[nH]c2c1	-1.1	-6	1%	x	10

(list continues)
SMILES	RecA intein inh	Mtb bLac sens	Mtb H37Rv	YopH PTP inh	Arbovirus inh	others
CS(=O)(=O)N1CCC(Oc2cccc(C(=O)NCCCOc3cccnc3)c2)CC1	1.7	4	x	x	x
Cc1ccc(NC(=O)CSc2nc(=O)n(CCCN3CCOCC3)c3c2CCCC3)c(C)c1	-1.0	-1	x	x	x
COc1ccc(C(=O)C(CO)Oc2ccccc2OC)cc1OC (configuration not stated)	-2.6	-8	x	6	2
CCOc1ccccc1OCCCC(=O)NC1CCCc2ccccc21 (configuration not stated)	2.3	-6	5%	-14	6
O=C(/C=C/Nc1cccc(F)c1)c1ccco1	-8.1	12	-11%	-15	1
COc1ccc(-n2cc(CNCCCN3CCCC3=O)c(-c3ccccc3Cl)n2)cc1	-0.7	9	3%	x	-6
COc1cc2nc(N(CCN(C)C)C(=O)c3ccc4ccccc4c3)sc2cc1OC	4.8	-2	x	x	x
Cc1cc(-c2nnc3n2N=C(c2ccccc2)CS3)n[nH]1	0.6	1	-3%	x	x
COC(=O)c1sccc1-n1cccc1C(=O)C(=O)N1CCCC1	1.9	1	-4%	-37	-2
CC(C)Sc1nc2ccccc2[nH]1	1.7	-3	-1%	x	-7
O=C(c1ccc(Cl)cc1Cl)c1ncc(C(F)(F)F)cc1Cl	0.0	x	-2%	-24	-8
COc1ccc(S(=O)(=O)N2CCC(C(=O)NCCC(=O)NC3CC3)CC2)cc1	-1.6	4	x	x	x
CCN(CC)C(=O)C(=O)c1cccn1-c1c(Cl)cccc1C#N	-0.7	-7	-1%	x	12
c1cc2c(cc1NC1CCCCCC1)OCO2	-1.0	8	x	x	x
COC(=O)c1cc(C(=O)N2CCN(C(=O)c3ccco3)CC2)cc([N+](=O)[O-])c1	-5.3	1	x	x	x
COC(=O)COc1ccc(S(=O)(=O)NCC2CCCO2)cc1Cl (configuration not stated)	-0.1	-2	-4%	-6	9
O=C1NC2(CCCCC2)N(C(=O)c2ccccc2)C2=C1CCCC2	-0.2	3	-8%	x	-7
CN(C)S(=O)(=O)c1ccc(C(=O)NCc2nc3ccccc3s2)cc1	0.1	-3	x	x	x
COc1ccc(-c2cc(C3CC3)nc(N)c2C#N)cc1	-1.8	-8	x	x	x
Cc1cccc(NC(=O)c2cnc3n(c2=O)CCS3)c1	-4.9	68	-3%	-2	1
CCc1ccccc1NC(=O)c1cc(=O)c2ccccc2o1	1.5	6	0%	x	1
COc1cccc(NC(=O)CCC(=O)Nc2cccc(OC)c2)c1	1.5	-6	1%	-15	-5
COc1cc([N+](=O)[O-])ccc1N1C(=O)C2C3C=CC(C4CC34)C2C1=O (configuration not stated)	-1.2	-12	6%	x	0
COc1cc(C2C3C(=O)N(c4ccc(F)cc4)C(=O)C3ON2c2ccccc2)ccc1O (configuration not stated)	-1.8	3	-2%	-59	8
Cn1c(=O)c2c(nc(NCCCO)n2C/C=C/c2ccccc2)n(C)c1=O	-11	-2	0%	-8	4
CCc1ccc(CN(C)C(=O)CCc2nnc(CCc3ccccc3OC)o2)nc1	1.4	5	-1%	x	10
Cc1ccc2c(CN3CCCCC3C)cc(=O)oc2c1 (configuration not stated)	1.5	u	x	x	x
O=C(Cn1ccc2ccccc2c1=O)NCCC(=O)N1CCN(C2CCCCC2)CC1	-2.0	-3	-12%	-25	9
C=CCCC(=O)N1CCCC(C(=O)c2cccc(OC)c2)C1 (configuration not stated)	0.1	0	x	x	x
CC1(C)c2ccccc2N2CC(=O)N(CC(N)=O)C21C (configuration not stated)	-2.8	5	-1%	12	4
CC(NC(=S)Nc1ccc(S(N)(=O)=O)cc1)c1ccc2c(c1)OCO2 (configuration not stated)	-1.2	-3	-2%	-2	4
Cc1cc(C)n(C(=O)c2nn(C)c(C)c2[N+](=O)[O-])n1	-7.3	-9	-2%	11	1
CCN(c1ccccc1)S(=O)(=O)c1cc(C(=O)Nc2cccc(Cl)c2)ccc1F	8.4	-5	10%	-19	5
Cc1cnc(NC(=O)CSc2nnc(C)n2N)s1	9.3	-1	-2%	-19	-1
COc1cc(/C=C/c2nc3ccccc3c(=O)[nH]2)cc(OC)c1OC	-7.0	-1	x	x	x
COc1ccc(S(=O)(=O)NCC2CCC(C(=O)O)CC2)cc1 (configuration not stated)	-0.3	-8	x	x	x
COc1ccc(OCc2nnc(SCC(=O)N(C)Cc3ccccc3)n2N)cc1	-1.5	-2	-1%	x	1
CC1CCCN(c2sc(S(C)(=O)=O)nc2S(=O)(=O)c2ccc(Cl)cc2)C1 (configuration not stated)	-8.5	3	x	x	x
CC(=O)c1cccc(NC(=O)CCc2nnc3ccc(N4CCOCC4)nn23)c1	-0.6	-12	x	x	x
COc1ccc(C(=O)NCc2nnc(SCC(=O)N3CCCCC3)o2)cc1OC	-1.2	0	-6%	-4	12
O=[N+]([O-])c1c(NCCCO)cc(SCc2ccco2)c2nonc12	65*	80	75%	-32	-26
COC(=O)CCC(=O)OC1(C)C(=O)C=C2C=C(C3CC3)N(Cc3ccco3)C=C2C1=O (configuration not stated)	-2.8	-6	-6%	x	x
CCCCC(CC)CNC(=O)C(=O)C1C(=O)Nc2ccccc21 (configuration not stated)	7.3	1	1%	x	8
CCc1ccc(-c2cc(-c3n[nH]c(=S)n3CC)c3ccccc3n2)cc1	1.5	15	9%	-23	0
COCCNC(=O)c1onc(CSc2ccccc2C)c1C(=O)O	-0.6	5	-4%	-14	1

Reprinted from the part before: seven entries, then new ones.
SMILES	RecA intein inh	Mtb bLac sens	Mtb H37Rv	YopH PTP inh	Arbovirus inh	others
CC(=O)c1cccc(NC(=O)CCc2nnc3ccc(N4CCOCC4)nn23)c1	-0.6	-12	x	x	x
COc1ccc(C(=O)NCc2nnc(SCC(=O)N3CCCCC3)o2)cc1OC	-1.2	0	-6%	-4	12
O=[N+]([O-])c1c(NCCCO)cc(SCc2ccco2)c2nonc12	65*	80	75%	-32	-26
COC(=O)CCC(=O)OC1(C)C(=O)C=C2C=C(C3CC3)N(Cc3ccco3)C=C2C1=O (configuration not stated)	-2.8	-6	-6%	x	x
CCCCC(CC)CNC(=O)C(=O)C1C(=O)Nc2ccccc21 (configuration not stated)	7.3	1	1%	x	8
CCc1ccc(-c2cc(-c3n[nH]c(=S)n3CC)c3ccccc3n2)cc1	1.5	15	9%	-23	0
COCCNC(=O)c1onc(CSc2ccccc2C)c1C(=O)O	-0.6	5	-4%	-14	1
Cc1ccnc(NC(=O)CC(NC(=O)c2ccccc2Cl)c2ccccc2)c1 (configuration not stated)	-0.7	-6	x	x	x
C=C1CCC[C@]2(C)C[C@H]3OC(=O)C(CNC(C)CC)[C@H]3CC12 (some centres not stated)	0.3	0	x	x	x
COc1ccc(C2(O)CCN(CC(=O)Nc3nccs3)CC2)c(OC)c1	0.0	-4	-8%	-30	3
CC1CCN(S(=O)(=O)c2cccc(C(=O)N3CCN(c4ccc(F)cc4)CC3)c2)CC1	0.3	4	x	x	x
COc1ccc(/C=N\NC(=O)c2ccccc2Br)cc1COc1ccccc1	-0.1	-9	x	x	x
COc1ccc(NC(=O)CSc2nnc(NC(=O)c3ccco3)s2)cc1	4.9	0	-7%	x	-2
COc1cccc(S(=O)(=O)Nc2ccc(C(=O)N3CCN(C(=O)c4ccco4)CC3)cc2)c1	1.8	2	-5%	-7	0
CCCC(C(=O)Nc1nccs1)c1ccccc1 (configuration not stated)	1.4	13	10%	-4	2
CN(C1=NS(=O)(=O)c2ccccc21)c1ccc(OC(=O)c2ccncc2)cc1	5.3	0	-3%	x	8
O=C(c1oc(=O)c2ccccc2c1-c1ccccc1)N1CCOCC1	0.8	-5	-11%	-43	5
O=C(Cc1ccccc1)Nc1ccccc1Sc1ccccc1	11	1	4%	-29	0
COc1cccc(C2/C(=C(/O)c3ccc(C)cc3)C(=O)C(=O)N2Cc2ccco2)c1 (configuration not stated)	-0.6	8	3%	-28	-2
Nc1nnnn1/N=C/c1ccccc1O	-29	-1	x	x	x
COc1ccc(S(=O)(=O)N2CC(C(=O)O)Oc3ccc(CC(=O)O)cc32)cc1 (configuration not stated)	x	-1	-6%	-32	6
O=C(NCCCN1CCCC1=O)Nc1ccc(Cl)cc1	3.7	-16	-8%	12	x
Cc1cc(C(=O)CN2C(=O)NC3(CCCCC3)C2=O)c(C)n1-c1ccc2c(c1)OCO2	3.7	0	19%	-19	1
COc1ccccc1NC(=O)COc1coc(CN2CCN(c3ccccc3)CC2)cc1=O	0.2	12	x	x	x
CSc1n[nH]c(N)c1S(=O)(=O)c1ccc(Cl)cc1	2.2	-5	x	x	x
N=c1n(Cc2ccccc2)c2ccccc2n1CC(O)c1ccccc1 (configuration not stated)	0.1	12	2%	-9	1
CCOC(=O)/C=C/c1cnn(-c2ccccc2)c1	-0.9	5	5%	-29	1
CC(=O)Nc1ccc(/C=C(\C#N)C(N)=O)cc1	-1.5	2	-5%	x	x
Cn1c(NC(=O)C2CC2)cc(=O)n(C)c1=O	0.8	-2	5%	-27	2	Arbovirus inh repeat=0
O=[N+]([O-])c1cccc2ccc(/C=C/c3ccc(Cl)cc3)nc12	-14	26	14%	-16	25
O=C(O)CC1(CC(=O)Nc2ccc(Cl)cc2C(=O)c2ccccc2)CCCC1	1.2	-6	2%	x	x
CSC1=NCCN1CCOc1ccccc1	6.1	1	0%	x	-3
O=Nc1c(O)n(Cc2cccc(C(F)(F)F)c2)c2ccccc12	5.0	-5	0%	x	-3
COc1ccc(C(C(=O)NC2CCCC2)N(C(=O)c2ccco2)c2ccccc2C(C)=O)cc1OC (configuration not stated)	-0.9	2	x	x	x
CCN(CC)c1ccc2cc(C(N)=O)/c(=N\NC(=O)c3ccncc3)oc2c1	-25	40	0%	x	-18
CC(=O)N(CN1C(=O)c2ccccc2C1=O)c1ccc2c(c1)oc1ccccc12	1.5	u	x	-16	-1
O=C(Nc1ccc2c(c1)CCC2)c1cccc(S(=O)(=O)Nc2ccccc2Cl)c1	9.0	-5	2%	-42	-3
Cc1ccc(NC(=O)/C(=C/C=C/c2ccccc2)NC(=O)c2ccccc2)cc1	0.6	10	-2%	-24	30*
O=C1NC(=O)c2cc(Br)cc3cccc1c23	1.1	-2	1%	x	-7
CCCC(=O)N1CCN(c2ccc(NC(=O)c3sc4ccccc4c3Cl)cc2)CC1	0.2	16	3%	-21	-17
Cc1c(Cl)cnc(NC(=O)COC(=O)c2cccc(S(=O)(=O)N3c4ccccc4CC3C)c2)c1Cl (configuration not stated)	4.7	-5	-2%	-27	5
O=C(NCCc1ccccc1)c1ncn[nH]1	2.8	2	-4%	12	0
Cc1ccc(NC(=O)C2CCN(S(=O)(=O)c3cccc(C(F)(F)F)c3)CC2)nc1	-2.1	-4	x	x	x
Cc1ccc(C(=O)Nc2ccc3c(c2)CCC3)cc1	0.9	83	28%	x	1

Only part of the results is shown. The share of hits here may be higher or lower than overall.
